Vif A3G – inhibitors of Vif binding to APOBEC3G peptide, primary screen, biochemical, TR-FRET, GST-Vif 1-94, biotin-A3G peptide, dose response retest (AID 1117319); Virion infectivity factor (Human immunodeficiency virus type 1 group M subtype B (isolate …; TR-FRET GST-Vif / biotin-A3G peptide binding; higher % means a stronger effect; test concentration not given here; strong numbers were not always called active; one-dose inhibition, %; IC50 in µM for titrated hits; 260,000 tested, 0.57% active;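 active means above the screen mean plus three standard deviations and confirmed in dose response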;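 further: Vif residues 1-94 fused to GST binding biotinylated APOBEC3G peptide 110-148; 0% = full assay without inhibitor and 100% = GST in place of GST-Vif; retest series ran down from 100 µM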
ALR H2O2 inh – inhibitors of human ALR sulfhydryl oxidase, primary screen, biochemical, H2O2 detection, HRP-luminol luminescence, single point; AID 485317, 2010; purified ALR, DTT oxidation; FAD-linked sulfhydryl oxidase ALR (Homo sapiens), P55789; 290,000 tested, 3.8% active; inhibition, % (test concentration not listed);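 active means mean and each replicate at 75% or more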;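 further: stock transfer was 7.5 nL into about 7.5 µL; 0% = neutral wells and 100% = wells with inactivated enzyme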
Target sequence (P55789 whole entry, looked up): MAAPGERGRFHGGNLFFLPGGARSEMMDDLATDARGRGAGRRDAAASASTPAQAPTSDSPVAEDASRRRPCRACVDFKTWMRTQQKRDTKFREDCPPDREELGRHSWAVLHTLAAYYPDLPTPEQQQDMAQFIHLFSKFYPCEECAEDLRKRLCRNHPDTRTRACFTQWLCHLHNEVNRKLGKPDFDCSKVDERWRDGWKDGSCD
E coli growth – E. coli growth inhibition, primary screen, OD600; 330,000 tested, 0.21% active; AID 1053175, 2014; OD600 absorbance (concentration not given with the values); Escherichia coli growth, 23 h; hits give low values;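 active means OD600 absorbance below the run mean of sample wells minus 3.6 SD, in any replicate, cut at about 0.56 in these data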;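 further: stock transfer was 300 nL into about 60 µL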
HNF4A DNA FP – change in binding of human HNF4A to DNA, primary screen, biochemical, fluorescence polarization, FITC-DNA. 360,000 tested, 0.3% active. AID 1224865, 2016. activity change, % at 10 µM. 1 h; in the data active means activity change above about 30%, passing the limit was not always enough;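 further: controls were the assay level and a saturating level of protein; the project sought stronger binding though the title names inhibitors; some compounds called inactive have numbers as strong as hits; positive values seem to mean higher polarization but the record does not say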
Ecoli rRNA inh – reduced GFP signal of wild-type E. coli, primary screen, bacterial rRNA inhibitor project, GFP/RFP fluorescence, OD600, single point | GFP signal change (wild-type ribosome), % (concentration not given with the values) | 350,000 tested, 1.6% active | E. coli WT GFP vs humanized-ribosome RFP mutants, 24 h; hits give low values; DMSO median 0, no signal -100;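 active means significant combined selectivity score with lowered wild-type GFP, culture density cut under 30%, mutant RFP and density less affected; inactive means any of these conditions unmet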; further: one replicate is shown; some compounds called inactive have numbers as strong as hits
FGF22 binding – binders of human FGF22 protein, primary screen, FGF22 synaptogenesis inhibitor project, biophysical, thermal shift, single point; recombinant FGF22 thermal shift, SYPRO orange fluorescence; percent of sucrose octasulfate shift, DMSO zero; 340,000 tested, 1.5% active; calls only at 9.99 µM; Fibroblast growth factor 22 (Homo sapiens), Q9HCT0;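 active means melting point raised past a set limit in the mean and every replicate; three in four hits are not shown here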
Target sequence (Q9HCT0 whole entry, looked up): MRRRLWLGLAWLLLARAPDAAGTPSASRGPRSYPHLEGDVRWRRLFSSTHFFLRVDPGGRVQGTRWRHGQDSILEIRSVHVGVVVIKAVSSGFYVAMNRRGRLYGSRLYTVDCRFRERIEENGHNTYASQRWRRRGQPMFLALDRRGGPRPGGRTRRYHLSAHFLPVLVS
MLL AF4-AF9 inh – inhibitors of AF4 peptide binding to AF9, primary screen, biochemical, AlphaScreen, biotin-AF4 peptide, FLAG-AF9, single point; Protein AF-9 (Homo sapiens), P42568; inhibition, % at 10 µM; 350,000 tested, 0.47% active;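 active means every replicate reaching a set inhibition limit, whatever the replicate mean, cut at about 25% in these data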;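 further: 0% = plate neutral control median and 100% = total signal loss; the record names both 10 and 1 µM as test concentration; the first replicate is given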
Target sequence (P42568 whole entry, looked up): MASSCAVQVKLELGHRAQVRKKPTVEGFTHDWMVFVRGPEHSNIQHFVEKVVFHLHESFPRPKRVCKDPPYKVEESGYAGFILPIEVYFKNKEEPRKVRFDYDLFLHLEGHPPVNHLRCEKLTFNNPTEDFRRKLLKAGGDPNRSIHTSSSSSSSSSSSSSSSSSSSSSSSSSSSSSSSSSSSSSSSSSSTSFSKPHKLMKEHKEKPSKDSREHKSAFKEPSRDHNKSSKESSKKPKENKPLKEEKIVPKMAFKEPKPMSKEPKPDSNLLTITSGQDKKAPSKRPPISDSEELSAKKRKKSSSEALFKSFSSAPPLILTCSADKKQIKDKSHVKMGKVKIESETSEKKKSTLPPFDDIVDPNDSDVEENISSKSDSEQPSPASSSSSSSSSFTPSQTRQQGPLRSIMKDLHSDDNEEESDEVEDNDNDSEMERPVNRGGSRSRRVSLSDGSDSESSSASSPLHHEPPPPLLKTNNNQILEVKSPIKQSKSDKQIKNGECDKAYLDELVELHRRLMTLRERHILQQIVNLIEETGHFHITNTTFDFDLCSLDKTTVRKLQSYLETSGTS
Ecoli rRNA inh OD600 – second read-out of Ecoli rRNA inh, no call of its own (marks repeat the call); OD600 change, %; measured here: OD600 growth;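 optical density of the mix in the first replicate; 0 = DMSO median and -100 = no signal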
Ecoli rRNA inh RFP – recorded beside Ecoli rRNA inh, whose call it bears; RFP signal change, %; measured here: RFP humanized mutant strains;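 first replicate; 0 = DMSO median and -100 = no signal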
Numbers without * were called inactive; i = inactive; / = not tested or not shown; + = active, no number; & = joins results of further samples. The list is partial (hit frequency here may not be typical).

SMILES	Vif A3G	ALR H2O2 inh	E coli growth	HNF4A DNA FP	Ecoli rRNA inh	Ecoli rRNA inh OD600	Ecoli rRNA inh RFP	FGF22 binding	MLL AF4-AF9 inh
CCc1ccccc1NC(=O)CSc1nnc(-c2cc(C)[nH]n2)n1N	/	-3	0.65	-2.3	3	8	-1.3	i	-0.3
C[C@H](CO)N1C[C@H](C)[C@H](CN(C)Cc2ccncc2)Oc2ccc(NC(=O)Nc3ccccc3)cc2C1=O	/	/	/	/	3	11	0.5	i	0.8
O=S(=O)(Nc1cccc(-c2ccc(N3CCCCCC3)nn2)c1)c1ccc(C(F)(F)F)cc1	/	1	0.69	1.3	-14	-7	0.2	i	-0.4
CCC(=O)Nc1ccc2c(c1)C(=O)N(C)[C@H]1CC[C@H](CC(=O)NCc3ccccc3)O[C@H]1CO2	/	/	/	/	-2	1	-1.2	i	1.1
O=S(=O)(c1cccc(F)c1)N1CCN(c2ncnc3scc(-c4ccc(F)cc4)c23)CC1	-19%	-8	0.73	-0.7	-11	-3	-4.7	i	-0.6
N#Cc1ccccc1OCC(=O)NC(=O)NCc1ccccc1	/	-10	0.68	-2.5	12	4	2.2	i	-1.8
COc1ccc(Nc2nc3ccccc3s2)cc1	0%	-18	0.71	-1.1	18	3	1.0	+	1.1
COc1ccc(OS(=O)(=O)c2c(C)noc2C)cc1	-6%	-4	0.69	1.6	1	-4	3.6	i	0.1
O=C(NC1CCCC1)C(c1ccc(F)cc1)N(Cc1ccccc1Cl)C(=O)CCl (centres undefined)	3%	2	0.71	1.9	-9	-11	-6.2	i	3.7
CC(C)C(NS(=O)(=O)c1cccs1)C(=O)NCc1ccccc1 (centres undefined)	/	-2	0.68	-2.2	5	7	-1.8	i	1.2
CC(=NCCc1ccccc1)C1=C(O)CCC1=O	7%	-1	0.68	6.2	/	/	/	/	/
NC(=O)C1(N2CCCCC2)CCN(C(=O)CCCn2c(=O)[nH]c3ccsc3c2=O)CC1	8%	2	0.74	-1.3	2	0	-0.9	i	0.5
CSc1ccccc1NC(=O)C1C2CCC(C2)C1C(=O)O (centres undefined)	/	7	0.7	2.7	22	17	3.7	i	-3.0
O=C(Cc1ccccn1)N[C@@H]1CC[C@H](CC(=O)N2CCCCC2)O[C@@H]1CO	/	/	/	/	3	3	-2.3	i	-0.1
COCCNC(=O)C[C@@H]1C[C@@H]2c3cc(NC(=O)NC4CCCCC4)ccc3O[C@@H]2[C@H](CO)O1	/	/	/	/	3	-7	-0.5	i	-1.7

Record cards (already shown). Order of values: Vif A3G, ALR H2O2 inh, E coli growth, HNF4A DNA FP, Ecoli rRNA inh, Ecoli rRNA inh OD600, Ecoli rRNA inh RFP, FGF22 binding, MLL AF4-AF9 inh
C[C@H](CO)N1C[C@H](C)[C@H](CN(C)Cc2ccncc2)Oc2ccc(NC(=O)Nc3ccccc3)cc2C1=O is listed as /, /, /, /, 3, 11, 0.5, i, 0.8
N#Cc1ccccc1OCC(=O)NC(=O)NCc1ccccc1 is listed as /, -10, 0.68, -2.5, 12, 4, 2.2, i, -1.8

Part of the list above, bar-delimited.
SMILES | Vif A3G | ALR H2O2 inh | E coli growth | HNF4A DNA FP | Ecoli rRNA inh | Ecoli rRNA inh OD600 | Ecoli rRNA inh RFP | FGF22 binding | MLL AF4-AF9 inh
CCc1ccccc1NC(=O)CSc1nnc(-c2cc(C)[nH]n2)n1N | / | -3 | 0.65 | -2.3 | 3 | 8 | -1.3 | i | -0.3
C[C@H](CO)N1C[C@H](C)[C@H](CN(C)Cc2ccncc2)Oc2ccc(NC(=O)Nc3ccccc3)cc2C1=O | / | / | / | / | 3 | 11 | 0.5 | i | 0.8

Following part:
SMILES	Vif A3G	ALR H2O2 inh	E coli growth	HNF4A DNA FP	Ecoli rRNA inh	Ecoli rRNA inh OD600	Ecoli rRNA inh RFP	FGF22 binding	MLL AF4-AF9 inh
COc1ccc(C2c3ccc4ccccc4c3Oc3ncn(CCN(C)C)c(=N)c32)cc1 (centres undefined)	-7%	-15	0.68	1.0	-57	-82	-15	i	19
CCn1c(=O)c2sccc2n2c(CCCC(=O)NCc3cccnc3)nnc12	/	-5	0.7	-1.6	6	6	1.0	i	-1.2
CC(C)CCN1C(=O)C2(OCCCO2)c2cc(Cl)ccc21	/	-9	0.61	1.9	-8	-4	-2.8	i	-1.1
COc1ccc2nc(Nc3nc4cc5c(cc4s3)OCO5)sc2c1	1%	/	0.71	4.3	/	/	/	/	/
CC(c1ccco1)N(C(=O)c1cc(Cl)cc(Cl)c1)c1ccccn1 (centres undefined)	/	/	0.69	-2.5	-15	-22	-2.2	i	5.1
Cc1ccc(/C=C/C(=O)N2CCN(Cc3ccccc3)CC2)o1	21%	0	0.7	2.0	/	/	/	/	/
O=C(C[C@@H]1C[C@@H]2c3cc(NC(=O)NC4CCCC4)ccc3O[C@@H]2[C@@H](CO)O1)NCc1ccccc1	/	/	/	/	1	0	0.6	i	-0.1
Cc1cc(C(=O)COC(=O)CC2Sc3ccccc3NC2=O)c(C)n1-c1cccc(C(F)(F)F)c1 (centres undefined)	/	-17	0.7	-1.4	1	2	5.9	i	0.9
COc1ccc(S(=O)(=O)N(C)C[C@H]2Oc3ccc(NC(=O)Cc4cn(C)c5ccccc45)cc3C(=O)N([C@@H](C)CO)C[C@@H]2C)cc1	/	-2	0.79	3.7	-3&-4	-1&-5	-1.4&6.1	i	2.9&3.3
CCC(=O)N1CCC2(CC1)CN(C(=O)Cc1ccccc1)[C@@H](CO)c1c2c2ccc(OC)cc2n1C	/	/	/	/	-3	0	0.3	i	-3.5
CCOC(=O)C1(CCc2ccccc2)CCN(C(=O)Cc2nonc2C)CC1	/	100*	0.72	1.2	-31	-43	-6.4	i	-1.9
Cc1ccc(NC(=O)N(Cc2ccco2)C(C)c2ccco2)cc1C (centres undefined)	1%	-4	0.7	17	-7	-7	-7.0	i	3.9
Cc1ccc(C(=O)NCC(=O)Nc2ccc3c(c2)CCC3)cc1	16%	1	0.7	2.5	-1	-1	-0.9	i	-1.5
Cc1cc(C)cc(C(=O)NCC(=O)NNC(=O)CSc2ccccc2F)c1	-6%	-8	0.63	-2.0	4	3	2.9	i	-5.2
COc1cccc(S(=O)(=O)N(C)C[C@@H]2Oc3ncccc3C(=O)N([C@H](C)CO)C[C@@H]2C)c1	/	/	/	/	10	14	0.7	i	-10
O=C(CN1CCN(C(=O)c2ccco2)CC1)Nc1cccc([N+](=O)[O-])c1	8%	0	0.7	3.0	7	3	-2.4	i	-5.5
CCOC1=C2[C@H](c3ccccc3)N(S(=O)(=O)c3ccc(C)cc3)[C@H](C(C)C)[C@H]2C(C#N)(C#N)C(C#N)(C#N)C1	/	/	/	/	4	10	1.4	i	-44
Cc1ccc2c(c1)c1c(n2CC(O)Cn2c(C)nc3ccccc32)C(=O)CCC1 (centres undefined)	0%	-16	0.74	-0.5	5	-8	2.5	i	7.2
O=C(CCN1CCCCC1)N[C@@H]1CC[C@H](CCNS(=O)(=O)c2ccc(Cl)cc2)O[C@@H]1CO	/	/	/	/	-1	-3	2.9	i	1.9
Cc1noc(C)c1S(=O)(=O)N(C)C[C@H]1Oc2ccc(NS(C)(=O)=O)cc2C(=O)N([C@H](C)CO)C[C@H]1C	/	/	/	/	1	0	1.1	i	-0.2
c1ccc(C[C@H]2CNCCN2CC2(c3ccccc3)CC2)cc1	/	6	/	0.1	-1	-5	5.4	i	4.0
COC(=O)C1=C(C)N(CCCC(=O)O)C(=O)NC1c1cccc(Cl)c1Cl (centres undefined)	/	-1	0.69	4.5	2	7	2.8	i	6.0
COC(=O)c1c(NC(=O)CSc2nncs2)sc2c1CCCCC2	-4%	-7	0.63	-1.5	-49	-65	-8.3	i	3.4
O=C(Cn1cc(C(F)(F)F)ccc1=O)N/N=C/c1ccc(Cl)c(Cl)c1	/	-21	/	-0.9	-2	-5	0.4	i	-17
CCOc1ccc(C(=O)NCC(=O)N2CC=C(c3ccccc3)CC2)cc1OCC	-6%	6	0.66	-0.5	-5	-21	4.4	i	-0.7
C[C@@H]1CN([C@H](C)CO)C(=O)Cc2cc(NS(=O)(=O)c3ccc(F)cc3)ccc2O[C@H]1CN(C)Cc1ccc(C(F)(F)F)cc1	/	/	/	/	1	4	12	i	-0.6
CCCNC(=O)N(C)C[C@H]1Oc2cc(C#CC(C)C)ccc2S(=O)(=O)N([C@H](C)CO)C[C@@H]1C	/	/	/	/	-4	-9	-3.2	i	-2.6
CC(=O)c1ccc(N2CCN(C(=O)c3cc(-c4ccncc4)nc4ccc(Cl)cc34)CC2)cc1	/	-3	0.66	1.5	10	5	3.8	i	-3.3
CN(C)C(=O)C[C@@H]1C[C@@H]2c3cc(NC(=O)Cc4ccncc4)ccc3O[C@@H]2[C@H](CO)O1	/	/	/	/	1	4	-3.7	i	-4.5
CCOC(=O)CCSc1nc2c(c(C(F)(F)F)c1C#N)CCC2	-6%	/	0.66	0.3	/	/	/	/	/
CO[C@H]1CN(C)C(=O)c2ccc(NC(=O)c3ccc(F)cc3)cc2OC[C@@H](C)NC[C@@H]1C	/	/	/	/	-1	3	0.1	i	-1.4
CCc1nnc(NC(=O)CS(=O)(=O)Cc2ccccc2)s1	/	-15	0.66	1.4	4	5	0.8	+	-0.7
Cc1cccc(C(=O)OCC(=O)NNC(=O)c2cccs2)c1O	-5%	/	0.64	-1.2	2	-6	0.2	i	-25
O=C1CCc2ccccc2O1	/	/	0.71	6.3	5	5	-1.0	i	-0.4
OC[C@@H]1CN(Cc2ccc(-c3ccccc3)cc2)C[C@H](n2cnc3c(NCc4ccco4)ncnc32)O1	/	/	/	-0.7	-2	-14	8.5	i	-1.0
COc1ccc(CC(=O)Nc2nccs2)cc1S(=O)(=O)N1CCOCC1	/	-3	0.73	0.0	6	11	-0.7	i	1.8
Cc1cc(C(=O)NNC(=O)[C@H](C)NC(=O)c2ccc(Br)cc2)c(C)o1	/	/	0.68	-1.7	17	12	4.0	i	3.3

Sorted by molecular weight (high to low): three of the compounds above.
SMILES	Vif A3G	ALR H2O2 inh	E coli growth	HNF4A DNA FP	Ecoli rRNA inh	Ecoli rRNA inh OD600	Ecoli rRNA inh RFP	FGF22 binding	MLL AF4-AF9 inh
OC[C@@H]1CN(Cc2ccc(-c3ccccc3)cc2)C[C@H](n2cnc3c(NCc4ccco4)ncnc32)O1	/	/	/	-0.7	-2	-14	8.5	i	-1.0
Cc1cc(C(=O)NNC(=O)[C@H](C)NC(=O)c2ccc(Br)cc2)c(C)o1	/	/	0.68	-1.7	17	12	4.0	i	3.3
Cc1cccc(C(=O)OCC(=O)NNC(=O)c2cccs2)c1O	-5%	/	0.64	-1.2	2	-6	0.2	i	-25

Retrieved by structure from the list above (3):
SMILES	Vif A3G	ALR H2O2 inh	E coli growth	HNF4A DNA FP	Ecoli rRNA inh	Ecoli rRNA inh OD600	Ecoli rRNA inh RFP	FGF22 binding	MLL AF4-AF9 inh
COc1ccc(CC(=O)Nc2nccs2)cc1S(=O)(=O)N1CCOCC1	/	-3	0.73	0.0	6	11	-0.7	i	1.8
CO[C@H]1CN(C)C(=O)c2ccc(NC(=O)c3ccc(F)cc3)cc2OC[C@@H](C)NC[C@@H]1C	/	/	/	/	-1	3	0.1	i	-1.4
Cc1cccc(C(=O)OCC(=O)NNC(=O)c2cccs2)c1O	-5%	/	0.64	-1.2	2	-6	0.2	i	-25
